Screening data deposited in PubChem by ICCB-Longwood Screening Facility, Harvard Medical School.
MgrA DNA FP = S. aureus MgrA-DNA binding modulation; fluorescence polarization; inhibition, %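 (about 10 µg/mL by stock and volumes)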; 84,000 tested, 0.13% active;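 active = above 50% in either of two replicates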;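 also: 0% = protein plus DNA without compound and 100% = DNA alone without protein; higher means less MgrA bound to DNA so lower polarization; one replicate is shown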
Sa helicase inh = blocks Staphylococcus aureus DNA helicase; purified S. aureus helicase, fluorescence unwinding assay; about half of the hits fall short of the stated cut; inhibition, %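 (tested at about 80 µM)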; 120,000 tested, 0.05% active; AID 485395;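 active = both duplicates at 50% or more, or one of them with a favoured structure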;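 also: 0% = mean of negative control wells and 100% = mean of positive control wells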
* = called active by the depositor; . = no result given; & = joins results of further samples. An excerpt (hit frequency here may not be typical).

Molecule,MgrA DNA FP,Sa helicase inh
CC(=O)OC/C=C(C)/C=C/C=C(C)/C=C/C1=C(C)CCCC1(C)C,5.3,.
Nc1nc(NCc2cccnc2)n[nH]1,-1.4,.
c1ccc(N2CCN(c3ccccn3)CC2)nc1,3.6,-9
CC(=O)N1C(=O)CC(c2ccccc2)Sc2ccccc21 (stereo unspecified),-1.9,.
Cc1nn(C)c2c1S(=O)(=O)N=C(SCc1c(F)cccc1Cl)S2,12,.
Nc1ccc2nsnc2c1,.,5
Cc1nc2c(nc(C)n2-c2ccccc2)s1,-1.5,7
CCOC(=O)c1c(C)n(-c2ccccc2)c2c1cc(OC(=O)c1cccc(Cl)c1)c1ccccc12,1.9,.
NC(=O)CCNc1ccccc1,.,5
CCN(c1ccccc1)S(=O)(=O)c1ccc(Oc2ccc3c4c2CCCN4CCC3)nc1,.,-6
COC(=O)c1ccc(S(=O)(=O)N2CCCCCC2)n1C,0.3,.
COC(=O)C1=C(CSCc2ccco2)NC(=O)NC1c1ccccc1C (stereo unspecified),6.8,-6
CN(C)S(=O)(=O)c1cccc(CSc2nnc(COc3ccccc3F)n2N)c1,.,9
CCCN1C(=O)S/C(=C\c2cn(CC(=O)N3CCOCC3)c3ccccc23)C1=O,.,-18
CCOc1ccc(-c2c(=O)n(O)c3ccccc3[n+]2[O-])cc1,11,13
CS(=O)c1scc(-c2ccc(Cl)cc2)c1C#N (stereo unspecified),.,0
Cc1ccc(NC(=O)Cn2c(CC3CCS(=O)(=O)C3)nc3ccccc32)cc1C (stereo unspecified),.,-15
Nc1ncnc2c1nc(SCC(=O)O)n2Cc1ccccc1,-1.0,8
CCc1cc(=O)oc2cc3occ(C)c3cc12,.,1
CCC(C)Sc1nc(O)cc(=O)n1-c1ccccc1 (stereo unspecified),2.6,-1

(listing goes on)
Molecule,MgrA DNA FP,Sa helicase inh
Cn1cc(NC(=O)NCCCN2CCCCC2)c2ccccc2c1=O,.,-2
CC(C)(C)C(=O)Nc1sc2c(c1C(=O)O)CCCC2,.,-3
CC(=Nc1ccccc1O)c1sc2ccccc2c1O,6.5,.
N=c1oc2ccc(Br)cc2cc1C(=O)Nc1cccc(C(F)(F)F)c1,-1.3,.
CCO/C=C1\N=C(c2ccccc2)OC1=O,.,2
COc1ccc(C2CC(c3ccc(Br)cc3)=NN2C(=O)CCN2CCOCC2)cc1 (stereo unspecified),-0.1,3
O=C1/C(=C/c2ccco2)SC(=S)N1CCc1ccccc1,5.0,4
Cn1c(=O)c2[nH]cnc2n(C)c1=O,3.1&1.1&5.4,.
Cc1ccc(S(=O)(=O)N(C(=O)C2CCCCC2)c2ccc3oc(=O)sc3c2)c(C)c1,-1.6,4
CS(=O)c1ccc2c(c1)NC(=O)CS2 (stereo unspecified),0.0,-5
CN(C)Cc1c(O)ccc2cc(-c3nc4ccccc4n3C)c(=O)oc12,.,-39
Cc1cc(C(=O)COC(=O)c2ccc3c(c2)C(=O)N(CCC(C)C)C3=O)c(C)n1Cc1cccs1,.,4
O=C(Nc1ccc(S(=O)(=O)N2CCCC2)cc1)Nc1ccc(F)cc1F,0.6,-1
O=C(O)CCCC(=O)Nc1ccc(C(=O)N2CCCCC2)cc1,1.8,-16
CC(C)c1ccc(NC(=O)c2cnccn2)cc1,-1.9,.
Cn1nnc(C(O)CNCc2ccc(F)cc2)n1 (stereo unspecified),1.1,-8
CCOC(=O)N1CCN(CC(=O)NCCc2ccc(Cl)cc2Cl)CC1,.,-6
Cc1ccc(CCC(=O)NC2CCc3ccccc3C2)o1 (stereo unspecified),-5.3,-5
CSc1cnn(-c2ccccc2)c(=O)c1SC,4.2,12
S=C(NC1CCCC1)N1CCN(c2ccccc2)CC1,0.9,5

Remaining list, next part:
Molecule,MgrA DNA FP,Sa helicase inh
Cc1cc(C)nc(C(=O)N/N=C/c2cc(C)n(C3CCCC3)c2C)n1,.,22
Cc1cc(C)cc(NC(=O)C2CC(=O)NC(=NCc3ccccc3)N2)c1 (stereo unspecified),1.7,3
CN(CC(=O)Nc1ccc(F)cc1)C(=O)CSc1ccc2c(c1)OCCO2,.,-9
CC(C(=O)Nc1cccc(Cl)c1)N1CCNC(=O)C1 (stereo unspecified),.,2
COC(=O)C1=C(O)/C(=C/c2ccc(O)cc2)SC1=Nc1ccccc1,-1.2,-3
O=C(Nc1ccc(F)cc1)C1CC(=O)N(Cc2ccco2)C1 (stereo unspecified),1.3,.
CC(C(=O)Nc1ccccn1)c1ccccc1 (stereo unspecified),-0.9,4
Cc1ccc(C(=O)Nc2ccccc2C#N)cc1,.,-13
COc1ccc(CNC(=O)c2c(-n3cccc3)sc(C)c2C)cc1,.,-8
Cc1cc(COC(=O)C23CCC(=O)N2c2ccccc2C(=O)N3C)no1 (stereo unspecified),.,-7
CN(C)c1nc(N(C)C)nc(N(C#N)CN2C(=O)c3ccccc3C2=O)n1,-1.2,-3
Cc1ccc(N2C(=O)/C(=C/c3ccc4c(c3)OCO4)N=C2SCC(=O)Nc2cc(C)on2)cc1,.,12
CN(C)C=Nc1ccccc1I,.,-1
O=C(Oc1cccc2ccccc12)c1ccccc1,1.4,9
Cc1cccc(/C=N/n2c(C)cc(C)c(C#N)c2=O)c1,.,12
Cc1c(C(=O)N2CCCC2)c(S(=O)(=O)Nc2ccccc2)c(C)n1C,.,8
COc1ccc(NC(=O)CN(C)CC(=O)Nc2ccc(N3CCOCC3)cc2)cc1,.,-11
Cn1cccc1/C=C1\CC(c2ccccc2)C/C(=C\c2cccn2C)C1=O (stereo unspecified),.,-98
S=C1NCN(CCc2ccccc2)CN1,-0.4,0
CC(Oc1ccccc1)C(=O)N=Nc1c(O)[nH]c2ccc(Br)cc12 (stereo unspecified),.,28

Next section:
Molecule,MgrA DNA FP,Sa helicase inh
CC(=O)Nc1ccc2nc(SCc3ccccc3C#N)sc2c1,-3.9,3
COC(=O)c1sccc1NC(=O)c1ccc(F)cc1,.,14
CN1CCCN(CC2CC=CCC2)CC1 (stereo unspecified),-1.6,19
CN1C(=O)c2ccccc2Sc2ccc(NC(=O)NC3CC3)cc21,.,18
CC(C)S(=O)(=O)C/C(N)=N/OC(=O)c1cc(Cl)cc(Cl)c1,2.8,.
CCn1cc(S(=O)(=O)NCc2cccs2)cn1,3.5,-17
CCCc1nc2ccccc2n1CC(O)COc1ccccc1 (stereo unspecified),1.9,7
Cc1ccc(O)c(C(=O)c2cnn3c(N)nnc3c2)c1,.,-1
Cn1c(CN2CCOCC2)nnc1SCc1ccc(Cl)cc1,0.4,3
CCOC(=O)CCSc1cc(-n2cccc2)c(Cl)cc1[N+](=O)[O-],-2.8,.
COCCCNc1cc(C)nc2ccccc12,1.2,3
NC(=O)c1c(NC(=O)CN2C(=O)/C(=C/c3ccc(Cl)cc3Cl)SC2=S)sc2c1CCCC2,-0.3,.
CN(C(=O)COc1ncnc2sccc12)C1CCCCC1,.,-13
O=C(COc1ccc2c(c1)CCC2)N(Cc1cccnc1)c1ccc2c(c1)OCO2,.,-7
O=C(CC(Nc1ccccc1)c1ccccc1)C1CC1 (stereo unspecified),-2.3,.
C=CCc1cccc(/C=N/n2c(-c3ccccc3C)n[nH]c2=S)c1O,6.1,20
CC1CCCC(C)N1C(=O)c1ccccc1N (stereo unspecified),-1.4,7
COc1cc(C(=O)OCc2cc3ccccc3nc2Cl)cc2c1OCCO2,.,7
COC(=O)c1ccc(C(=O)Nc2nc(-c3ccncc3)cs2)cc1,.,-17
O=C(CCn1c(=O)oc2ccccc21)NCc1ccco1,0.6,5

Other results.
Values run as follows: MgrA DNA FP	Sa helicase inh
- COc1ccc(-c2cc(-c3ccco3)nn2-c2nc(-c3ccc(Cl)cc3)cs2)cc1
  .	-20
- CCOC(=O)c1cnc2ccccc2c1NCCc1ccccc1
  -0.1	5
- NC(=O)CSc1ncnc2sc3c(c12)CCC3
  .	-1
- COC(=O)CNC(=O)c1ccn[nH]1
  -3.1	12
- CCCCN=C1SC(CC(=O)Nc2ccccc2C)C(=O)N1CCCC (stereo unspecified)
  .	8
- O=C(/C=C/c1ccc(-c2ccc(F)cc2)o1)N1CCCC1
  2.5	-22
- CC(C)N1CCC(NC(=O)NC2CCCCC2)CC1
  -0.8	9
- COC(=O)CSC1=C(C#N)C2(CCCCC2)C(c2nc(-c3ccccc3)cs2)C(N)=N1 (stereo unspecified)
  .	-13
- O=C(Nc1nc2c(Cl)cccc2s1)C1CC1
  .	-12
- Cc1nccn1C(=O)c1cc2ccccc2oc1=O
  .	1

A second format for some results above:
MgrA DNA FP	Sa helicase inh	compound
2.5	-22	O=C(/C=C/c1ccc(-c2ccc(F)cc2)o1)N1CCCC1
-0.8	9	CC(C)N1CCC(NC(=O)NC2CCCCC2)CC1
.	-13	COC(=O)CSC1=C(C#N)C2(CCCCC2)C(c2nc(-c3ccccc3)cs2)C(N)=N1 (stereo unspecified)
.	-12	O=C(Nc1nc2c(Cl)cccc2s1)C1CC1

The results go on:
Values run as follows: MgrA DNA FP	Sa helicase inh
- Cc1c(Cl)cccc1-n1ccn(CC#N)c(=O)c1=O
  .	9
- c1ccc(-c2nc3ccccc3nc2N2CCCCC2)cc1
  .	3
- CCOC(=O)c1sc2nc3c(cc2c1NC(=O)c1ccccc1)COC(C)(C)C3
  .	-1
- CCOC(=O)c1c(SC)[nH]c2c(Cl)cccc2c1=O
  0.2	.
- Oc1c(Cl)cc(Cl)cc1C=Nc1cc(C(F)(F)F)cc(C(F)(F)F)c1
  2.3	.
- O=C(c1ccccc1)c1ccccc1Br
  .	8&-7
- CC1=C(C)/C(=N\S(=O)(=O)c2ccc(C)cc2)C=C(N2CCOCC2)C1=O
  .	5
- CCC1CCCCN1C(=O)C1=CC(c2ccc(OC)cc2)=NS(=O)(=O)N1C (stereo unspecified)
  2.9	1
- O=C(Nc1nnc(N2CCCCC2)s1)NC12CC3CC(CC(C3)C1)C2
  0.4	9
- O=C(O)CC(CC(=O)Nc1cc(C(F)(F)F)cc(C(F)(F)F)c1)c1ccc(Cl)cc1Cl (stereo unspecified)
  0.1	.

Taken from above.
In MgrA DNA FP, `O=C(O)CC(CC(=O)Nc1cc(C(F)(F)F)cc(C(F)(F)F)c1)c1ccc(Cl)cc1Cl` (stereo unspecified) is listed with 0.1
In Sa helicase inh, `c1ccc(-c2nc3ccccc3nc2N2CCCCC2)cc1` is listed with 3

One compound at a time (already shown). Order of screens: MgrA DNA FP, Sa helicase inh
`O=C(O)CC(CC(=O)Nc1cc(C(F)(F)F)cc(C(F)(F)F)c1)c1ccc(Cl)cc1Cl` (stereo unspecified) as listed: 0.1, .
`CCC1CCCCN1C(=O)C1=CC(c2ccc(OC)cc2)=NS(=O)(=O)N1C` (stereo unspecified) as listed: 2.9, 1

Later entries
Values run as follows: MgrA DNA FP	Sa helicase inh
- N#CC1(c2ccccc2)CCC(=O)CC1
  .	8
- CC(=O)N1[C@@H](C2C(=O)NN=C2C)C[C@H](C)N1c1ccccc1 (stereo partly specified)
  -1.8	1
- CC(C)C(NS(=O)(=O)c1cccc(C(F)(F)F)c1)C(=O)O (stereo unspecified)
  .	-8
- C=CCN1CCN(C(=O)c2csc3ccccc23)CC1
  -6.5	5
- COC(=O)c1sc(C(F)(F)F)c(-c2ccccc2)c1S(=O)(=O)N1CCOCC1
  -1.5	.
- CC(C)NC(=O)c1ccccc1NC(=O)c1ccco1
  2.1	-1
- Cc1cccc(CN2CCC(C(=O)N3CCC(C)CC3)CC2)c1
  0.4	-3
- CC(C)NS(=O)(=O)c1ccc(NC(=O)C(C)OC(=O)c2ccc(CO)cc2)cc1 (stereo unspecified)
  .	4
- Cc1cc(C(=O)CN(Cc2ccco2)S(=O)(=O)c2ccccc2)c(C)n1C
  .	-8
- CC(C(N)=O)N(c1ccc(Cl)cc1)S(C)(=O)=O (stereo unspecified)
  4.5	15

Quoted at random: 5 records from the list, in no set order.
Values run as follows: MgrA DNA FP	Sa helicase inh
- NC(=O)CSc1ncnc2sc3c(c12)CCC3
  .	-1
- CCc1cc(=O)oc2cc3occ(C)c3cc12
  .	1
- CN(CC(=O)Nc1ccc(F)cc1)C(=O)CSc1ccc2c(c1)OCCO2
  .	-9
- CCOC(=O)N1CCN(CC(=O)NCCc2ccc(Cl)cc2Cl)CC1
  .	-6
- Cn1nnc(C(O)CNCc2ccc(F)cc2)n1 (stereo unspecified)
  1.1	-8

(further entries)
Values run as follows: MgrA DNA FP	Sa helicase inh
- Cc1ccc(C(=O)n2c(O)c(C3=NCCCCC3)c3ccccc32)cc1
  0.7	-9
- CCOC(=O)c1c(S(=O)(=O)N2CCCc3ccccc32)c(C)n(C)c1C
  .	8
- CCCCNC(=O)c1cnn2c(C(F)F)cc(-c3ccccc3)nc12
  .	-10
- O=C(NCc1noc2ccccc12)Nc1ccc2c(c1)OCCO2
  -1.6	13
- COC(=O)c1ccccc1NC(=O)c1cc(C2CC2)on1
  .	17
- COC(=O)c1ccc(OCc2ccc(Cl)c(Cl)c2)cc1
  -2.4	.
- Cc1ccc(C(=O)Cn2c(=N)n(C)c3ccccc32)cc1
  -3.1	-2
- O=C(O)C1CC(=O)N(CCc2ccccc2)C1 (stereo unspecified)
  4.4	11
- CC(Oc1ccccc1)c1nc2ccccc2n1CCOc1ccccc1 (stereo unspecified)
  0.5	5
- Cc1ccc(C(=O)C(C)OC(=O)c2cc3ccccc3oc2=O)cc1 (stereo unspecified)
  .	-10
- COc1ccc(-c2noc(CCC(=O)NCCCN3CCC(Cc4ccccc4)CC3)n2)cc1
  .	-5
